Screening data as filed in PubChem.
Sa growth 42C: S. aureus growth inhibition. S. aureus RN4220 growth, OD600, 20 h, 42 °C; hits give low values. relative growth, % (test concentration not listed). 0.53% of 170,000 active;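 active = growth at 42 °C up to 50% and 20 or more points under that at 30 °C, or under 10% at both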;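 also: 300 nL library stock went into each well; scaled to the means of positive and negative controls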
HCMV UL50-53 inh: inhibitors of HCMV UL50-UL53 nuclear egress complex interaction | HTRF UL50-UL53 interaction, normalized percent inhibition | inhibition, % (no concentration beside the values) | 0.15% of 190,000 active;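 active = both replicates at 50% or more, plus weaker picks with an unusually low signal ratio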;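 also: stock transfer was 100 nL into about 20 µL; 0% = negative control wells and 100% = wells with untagged competitor protein; inactives centre near -12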
GIV-Gai inh: inhibitors of GIV GBA-motif binding to rat Galpha-i3; percent of control (FP), % (concentration not given with the values); 0.42% of 210,000 active; Galpha-i3/FITC-GIV peptide fluorescence polarization, 90 min; hits give low values; scaled: aluminum fluoride 0%, vehicle 100%;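 active = replicate mean at 85% of control or lower, very high polarization wells dropped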;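 also: wells of about 15 µL received 100 nL stock; the first replicate is given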
Target sequence (P08753 whole entry, looked up): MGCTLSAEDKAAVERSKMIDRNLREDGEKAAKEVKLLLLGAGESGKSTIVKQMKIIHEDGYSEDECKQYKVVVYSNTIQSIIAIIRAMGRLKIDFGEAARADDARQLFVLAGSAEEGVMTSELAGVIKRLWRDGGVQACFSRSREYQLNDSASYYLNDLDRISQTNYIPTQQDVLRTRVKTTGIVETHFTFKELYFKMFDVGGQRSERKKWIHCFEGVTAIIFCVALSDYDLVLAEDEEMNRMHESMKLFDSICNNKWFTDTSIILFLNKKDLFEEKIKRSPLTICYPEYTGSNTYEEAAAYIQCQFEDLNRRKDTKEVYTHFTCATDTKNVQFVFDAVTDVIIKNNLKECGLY
Sa growth 42C second temp: second read-out of Sa growth 42C, no call of its own (marks repeat the call); relative growth, %; measured here: growth at 30 °C;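 optical density after 20 h as mean of two plates; 100% = untreated growth and lower means inhibition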
Starred values were filed as active, the others as inactive; x = no result given; & = joins results of further samples. The order is random. About 0.83% of those tested had a hit in this group.

structure	HCMV UL50-53 inh	Sa growth 42C second temp	Sa growth 42C	GIV-Gai inh
CCN1CCN(CC(=O)N/N=C/c2ccccc2)CC1	-18	104	89	100
O=C(NCCn1c(C(F)(F)F)nc2cccnc21)Nc1ccc(Br)cc1	-16	x	x	114
O/N=C1/C2CN3CCN(C2)CC1(Cc1ccccc1)C3	-3	97	79	x
COc1ccccc1N1CCN(C(=O)c2cnn3c(C)c(Cc4cccc(C)c4)c(C)nc23)CC1	x	93	103	107
COc1ccc(OC)c(CNC(=O)c2cc3cc4ccc(C)cc4nc3o2)c1	-30	90	100	103
COc1ccc(Cl)cc1NC(=O)CN(C)CN1C(=O)C2CC=CCC2C1=O (stereo not given)	-28	97	90	x
CCc1ccc(OCC(=O)N(Cc2ccc(C(C)C)cc2)C2CCS(=O)(=O)C2)cc1 (stereo not given)	-8	85	84	104
CCc1c(C)sc2c1CCN(C(=O)Nc1ccccc1C(=O)OC)C2c1ccccc1 (stereo not given)	-2	x	x	99
Cc1ccccc1C(=O)Nc1ccc2nc3n(c(=O)c2c1)CCC3	2	76	91	105
COC(=O)CC1=CC(SCC(=O)Nc2ccc3c(c2)OCO3)=Nc2ccccc2N1	-41	x	x	106
S=C1NC2(CCCCCC2)NN1c1ccccc1	-12	86	97	106&110
CC(=O)Nc1ccccc1C(=O)NN	-28	89	95	109
CCOC(=O)CNc1c(-c2ccc(OC)cc2)nc2cccc(C)n12	-4	68	101	104
CC(C)NC(=O)CSc1nnc(-c2ccc(C(C)(C)C)cc2)n1-c1ccc2c(c1)OCO2	-25	89	104	102
Cc1ccc(CNC(=O)Cn2cc(S(=O)(=O)Cc3cccc(Cl)c3)c3ccccc32)cc1	x	96	116	103

Next section.
structure	HCMV UL50-53 inh	Sa growth 42C second temp	Sa growth 42C	GIV-Gai inh
CCc1cc(C(=O)OC)c(NC(=O)CC2SC(=NC)N(C)C2=O)s1 (stereo not given)	6	75	104	110
CCOc1ccc(CNC(=O)c2cccc(NC(=O)N3CCSc4ncccc43)c2)cc1OC	x	91	81	104
Cc1ccc2c(c1)C1CN(C)CCC1N2C(=O)COc1ccccc1 (stereo not given)	12	101	100	x
CC(C(=O)NCc1ccco1)N(C(=O)c1ccc(Cl)nc1)C1CCCCC1 (stereo not given)	9	80	82	101
Cc1nc2ccc(S(=O)(=O)N(C)CC(=O)NC3CCCC3)cc2s1	x	95	89	104
CCOc1ccccc1CNS(=O)(=O)c1cc2c(cc1C)NC(=O)CO2	x	99	109	106
O=C(COC(=O)C1=COCCO1)NCc1cccs1	16	95	92	x
Cc1ccsc1/C=N/NC(=O)c1nnn(-c2nonc2N)c1C	-26	84	83	107
COc1ccccc1NC(=O)c1sc2nc3c(c(C(F)(F)F)c2c1N)CN(C(C)=O)CC3	-120	93	113	114
O=C(O)c1cccc(-c2cccc(C(=O)O)c2)c1	-12	84	98	94
CCOC(=O)C1=C(C)NC2=C(C(=O)OC2)C1c1ccccc1 (stereo not given)	-32	81	98	x
Nc1ccc(C(=O)OC(C(=O)N2CCOCC2)c2ccccc2)cc1 (stereo not given)	-40	86	96	x
O=C(CCc1ccccc1)OCc1nc2ccccc2s1	-19	87	93	x
CC1CCC(C(C)C)C(=O)/C1=C/c1ccc(N(C)C)cc1 (stereo not given)	x	93	103	106
CCc1ccccc1NC(=O)Cn1c2ncccc2c(=O)n1-c1ccccc1	x	100	101	108

New compounds follow:
structure	HCMV UL50-53 inh	Sa growth 42C second temp	Sa growth 42C	GIV-Gai inh
CC1CCCC(NC(=O)c2ccc(NC(=O)c3ccc(=O)[nH]c3)cc2)C1C (stereo not given)	-1	84	86	x
C=CCN(C(=O)CSc1nc2ccccc2o1)c1nc2c(s1)CCCC2	-17	90	95	x
N#Cc1ccc(Cl)cc1NC(=O)COC(=O)C1CC1	-28	78	116	x
FC(F)(F)c1ccccc1-c1nnc(-c2sccc2Cl)o1	-24	84	90	98
Cc1cnc(NC(=O)CCN2C(=O)c3ccccc3C2=O)s1	9	108	105	101
O=c1c(-c2nnnn2-c2ccccc2)c[nH]c2ccccc12	-38	74	76	99
O=C1/C(=C\c2ccc(-c3cccc(C(F)(F)F)c3)o2)SC(=S)N1C1CCS(=O)(=O)C1 (stereo not given)	-13	x	x	104
CCN1C(=O)c2cccc3c(S(=O)(=O)N4CCc5ccccc5C4)ccc1c23	x	85	115	100
CC(=O)Nc1nonc1-c1nnc(SCC(=O)Nc2cc(C)ccc2C)n1-c1ccccc1	13	82	94	99
COc1ccccc1NC(=O)Cn1nc(-c2ccc(C)cc2)c2c(c1=O)CCCC2	-24	84	103	100
CCC(C(=O)Nc1ccccc1OC)n1c(C(=O)OC)cc2oc(C)cc21 (stereo not given)	2	93	110	105
N#Cc1ccc(OCC(=O)O)cc1	16	102	100	x
CCN(CC)CCCNC(=O)C1CCCN(C(=O)c2nnc(C(=O)Nc3ccc(F)cc3)s2)C1 (stereo not given)	4	x	x	109
Cc1ccc(CNC(=O)Cn2c3ccc(C)cc3c3nc4n(c(=O)c32)CCS4)cc1	-11	80	97	106
COC(=O)C1=C(C)NC(=S)NC1c1cn(-c2ccccc2)nc1-c1cccs1 (stereo not given)	0	94	107	x

Further entries:
structure	HCMV UL50-53 inh	Sa growth 42C second temp	Sa growth 42C	GIV-Gai inh
COC(=O)CN1C(=O)/C(=C\c2ccc(O)cc2)SC1=S	x	34	81	-42*
CN(C)c1ccc(C=Nc2ccc(C(N)=O)cc2)cc1	-25	99	116	107
CC(=O)NCCc1nc2cc(NC(C)=O)ccc2n1C	x	89	90	99
O=S(=O)(NCCc1ccccc1)c1cccc2cccnc12	-14	91	103	101
Cc1ccc(-c2cc(C(F)(F)F)n3ncc(C(=O)OCC4CCCO4)c3n2)cc1 (stereo not given)	-60	x	x	102
COc1ccc(CN(C)CC(=O)c2c[nH]c3ccccc23)c(OC)c1	-17	95	101	x
O=c1c2ncccc2n(Cc2ccc(Br)cc2)c(=O)n1Cc1ccc2c(c1)OCO2	6	x	x	107
CC(=O)Nc1ccc(NC(=O)CSCC(=O)O)cc1	-18	84	97	100
O=C(CSc1nnc(CN2CCCC2)n1-c1ccccc1)c1ccc2c(c1)OCO2	-35	88	68	x
CCC(NC(=O)c1cc(OC)c(OC)c(OC)c1)C12CC3CC(CC(C3)C1)C2 (stereo not given)	x	86	114	101
COc1ccc(OC)c(NC(=O)CSc2nnc3ccc4ccccc4n23)c1	-41	83	97	109
Cc1csc2nc(CN3CCOCC3)[nH]c(=O)c12	-20	84	86	100
COc1ccc(C(=O)CNc2ccc(C#N)cc2)cc1	-27	87	106	x
Cc1cc(OCc2noc(CSc3ccc(C(F)(F)F)cn3)n2)cc(C)c1Cl	-6	98	98	101
CC(/C(N)=N/O)N1CCCC1=O (stereo not given)	5	96	111	99

Other entries.
structure	HCMV UL50-53 inh	Sa growth 42C second temp	Sa growth 42C	GIV-Gai inh
O=C(c1ccc2c(c1)CCCN2S(=O)(=O)c1ccccc1)N1CCN(c2ccccc2F)CC1	-13	x	x	104
Cn1c(=O)n(C)c2cc(NC3=C(C(=O)Nc4ccc(F)cc4F)S(=O)(=O)c4ccccc43)ccc21	-31	x	x	101
Cc1ccc(Cn2ccnc2SCC(=O)NCc2ccccc2)cc1	x	87	100	104
COc1ccc(C)cc1NC(=O)C(Cc1ccccc1)NS(=O)(=O)c1ccc(Br)s1 (stereo not given)	0	112	104	103
NC(=O)N1c2ccccc2CC(=O)c2ccccc21	-33&-44&12	78&95&79	78&94&88	92
CCOC(=O)C1CCN(c2c(NC3CCCC3)c(=O)c2=O)CC1	-23	x	x	101
O=C(/C=C/c1ccccc1)OCCN1C(=O)c2cccc3c(N4CCOCC4)ccc(c23)C1=O	-18	x	x	100
COc1ccc(C(=O)N(CC(=O)Nc2nn(-c3ccccc3)nc2C(N)=O)Cc2ccccc2)cc1	-9	73	101	x
CC(O)/C=C\c1cc[n+](C)cc1 (stereo not given)	-9	93	100	95
Cc1c(C(=O)OC2CCCCC2)[nH]c2c1C(=O)CC(c1ccccc1Cl)C2 (stereo not given)	-8	90	112	106
CC(C)N(Cc1ccccc1)S(=O)(=O)c1ccc2c(c1)CCO2	-22	86	108	103
COc1cccc(CNC(=O)c2cc(-c3ccc(F)cc3)[nH]c2C)c1	-10	x	x	110
C=CC1(C)CC(=O)C2(O)C(C)(O1)C(OC(C)=O)C(O)C1C(C)(C)CCC(O)C12C (stereo not given)	-20	x	x	99
CCOC(=O)C1=C(CSc2ccc(C)cc2C)NC(=O)NC1C (stereo not given)	-26	94	97	x
CC(C)C1=NN(C(=O)C(O)c2ccccc2)C(O)(C(F)(F)F)C1 (stereo not given)	-11	78	85	102

Other results follow.
structure	HCMV UL50-53 inh	Sa growth 42C second temp	Sa growth 42C	GIV-Gai inh
Cc1ccc(C)c(CN2C(=O)c3ccccc3Sc3ccc(C(=O)NCCCOC(C)C)cc32)c1	x	90	111	103
Cc1ccc(CS(=O)(=O)CCC(=O)NCc2ccc3c(c2)OCO3)cc1	-16	93	103	101
CCc1ccccc1NC(=O)Cn1cc(S(=O)(=O)N2CCCC2)c(S(=O)(=O)N2CCCC2)c1	x	89	92	105
CC(NC(=O)c1cccs1)c1ccccc1 (stereo not given)	-19	84	89	104
CCOC(=O)c1c(-c2ccccc2)oc2c1cc(OC(=O)c1ccc(S(=O)(=O)N3CCOCC3)cc1)c1ccccc12	-13	x	x	109
O=C(CSc1nnc2sc3ccccc3n12)N1CCc2ccccc21	x	80	114	97
Oc1ccc(Cl)cc1/C=N/c1nccs1	-19	77	96	102
COc1ccc(Cn2c(C(=O)O)c(CNCC(C)c3ccccc3)c3ccc(OC)cc32)cc1 (stereo not given)	x	73	92	104
CC1CCN(C(=O)c2cc3sccc3n2C)CC1	-7	97	95	95
CC(C)Cc1nc(SCC(=O)Nc2ccccn2)n[nH]1	-14	74	98	97
Cc1cc(C(=O)O)c(=O)[nH]c1C	x	101	62	107
CCOC(=O)c1cc(C(C)(C)C)n(CCSC)c1C	-3	97	118	103
CCOc1ccc(NC(=O)c2ccc3snnc3c2)cc1	-16	87	100	109
COc1cc(OC)cc(C(=O)NCC(=O)OC2CCOC2=O)c1 (stereo not given)	-12	90	82	x
CCOC(=O)c1ccc(NC(=O)c2nn(-c3ccccc3C)c(=O)cc2OC)cc1	5	x	x	96

Next section
structure	HCMV UL50-53 inh	Sa growth 42C second temp	Sa growth 42C	GIV-Gai inh
CNC(=O)NCC12CC3CC(CC(C3)C1)C2	5	93	103	x
CCOC(=O)c1cnc2c(-c3ccccc3)c(COc3ccccc3)nn2c1C	-18	x	x	97
O/N=C1\CC(O)(C(F)(F)F)Oc2ccc(Cl)cc21 (stereo not given)	-20	16	41	101
CNC(=S)NCCN1CCCCC1	-13	79	104	102
O=C1c2ccccc2C(=O)c2c1cccc2-c1ccc(/C=c2\sc3nc4ccccc4n3c2=O)o1	-78	x	x	107
O=C(Cc1cn2ccsc2n1)N/N=C1\C(=O)c2cccc3cccc1c23	-94	75	86	x
COc1ccc(C2=Nc3ccc(OC(F)(F)F)cc3NC(c3cccnc3)=N2)cc1	-31	88	89	98
CCCC(=O)ON1C(=O)c2cccc3cccc(c23)C1=O	-138	21	46	98

Exported field by field: 2 of the compounds above
mol: O=C1c2ccccc2C(=O)c2c1cccc2-c1ccc(/C=c2\sc3nc4ccccc4n3c2=O)o1
  HCMV UL50-53 inh: -78	Sa growth 42C second temp: x	Sa growth 42C: x	GIV-Gai inh: 107

mol: O=C(Cc1cn2ccsc2n1)N/N=C1\C(=O)c2cccc3cccc1c23
  HCMV UL50-53 inh: -94	Sa growth 42C second temp: 75	Sa growth 42C: 86	GIV-Gai inh: x

Ordered by length of the SMILES (low to high): 5 of the compounds above.
structure	HCMV UL50-53 inh	Sa growth 42C second temp	Sa growth 42C	GIV-Gai inh
CNC(=S)NCCN1CCCCC1	-13	79	104	102
CNC(=O)NCC12CC3CC(CC(C3)C1)C2	5	93	103	x
CCCC(=O)ON1C(=O)c2cccc3cccc(c23)C1=O	-138	21	46	98
O=C(Cc1cn2ccsc2n1)N/N=C1\C(=O)c2cccc3cccc1c23	-94	75	86	x
COc1ccc(C2=Nc3ccc(OC(F)(F)F)cc3NC(c3cccnc3)=N2)cc1	-31	88	89	98
